# Assay outcomes: PubChem BioAssay, ICCB-Longwood Screening Facility, Harvard Medical School
# AID504770 = growth inhibitors of E. coli YBA685 in a screen for V. cholerae RctB (chromosome II replication) inhibitors; E. coli YBA685 rctB-dependent plasmid, OD600 growth, 3 h; active compounds read low; z-score (test concentration not listed); hit rate 0.27% among 130,000; AID 504770;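 active = z-score under -2 on both plates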;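 also: wells of about 30 µL received 100 nL stock; score is relative to mean and SD of the test wells; the first replicate is given; strong numbers were not always called active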
# CapD inh = blocks the Bacillus anthracis CapD enzyme. purified CapD enzyme, fluorescence intensity read-out; active compounds read low; some hits fall short of the stated cut. z-score (no concentration beside the values). hit rate 0.23% among 140,000. AID 492967;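 active = z-score under -4 in either of two replicates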;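 also: stock transfer was 100 nL into about 40 µL; score is relative to mean and spread of the plate; one replicate is shown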
# Active calls of the source: *; nt = no result given.
SMILES,AID504770,CapD inh
CCN1CC(NC(=O)c2ccccc2OC)CN1CC,nt,0.23
COc1ccc(C2(C(F)(F)F)NC(=O)C3=C(CC(C)(C)CC3=O)O2)cc1 (configuration not stated),2.4,-0.53
COc1cc(OC)c(/C=C2\C(=O)NC(=O)N(c3ccc(C)cc3)C2=O)cc1Br,nt,1.4
O=C(O)/C=C/C(=O)N1CCCN(c2ncccc2C(F)(F)F)CC1,0.7,0.21
Cc1cccc(N=C(N)N=C(N)N)c1C,nt,0.34
O=S(=O)(c1ccc(N2CCOCC2)cc1)N1CCOCC1,-1.2,0.15
N#CC(C(=O)c1ccco1)=C1SCCCS1,-0.85,-2
Nc1nnc(SCC(=O)NCCCCCCNC(=O)CSc2nnc(N)s2)s1,nt,-0.09
Cc1cc(C)n(CCc2nc3c4ccccc4n(Cc4ccc(F)cc4)c(=O)n3n2)n1,-0.4,-1.1
CNC(=O)NNc1nccc(-c2cccnc2)n1,-0.8,-0.47
Oc1ccc(Cl)cc1-c1csnn1,-2.2*,-0.025
O=C(CN1CCC(C(=O)c2ccccc2)CC1)NCc1cccs1,1.2,nt
O=C(O)CNC(=O)c1ccc(F)cc1,-1.3,nt
Cc1cccc(N(C(=O)c2csnn2)C(C(=O)NC2CCCCC2)c2ccco2)c1 (configuration not stated),-0.1,nt
CSc1ncc(C(=O)O)cn1,-0.15,nt
Cc1ccc(OC(C)C(=O)Nc2nonc2-c2ccc(Cl)cc2)cc1C (configuration not stated),-0.45,0.11
CC(=O)Nc1ccc(S(=O)(=O)Nc2ccc(-n3cc(-c4cnccn4)cn3)cc2)cc1,nt,0.65
Cc1cc(C)c(C(N)=O)c(N2CCN(c3ccccc3)CC2)n1,0.15,nt
Cc1c(N)n[nH]c1-c1cccs1,-0.05,nt
CN1CCN(C(=S)SCc2nc(N)nc(Nc3ccccc3)n2)CC1,-0.8,0.07
Cc1ccc(-c2nc(CS(=O)CC(=O)Nc3c(C)cccc3C)c(C)o2)cc1 (configuration not stated),-1.1,0.9
CCOc1ccc(/C=C2\S/C(=N\S(=O)(=O)c3ccc(C)cc3)NC2=O)cc1,nt,0.7
CCc1ccc(-c2nn(-c3ccccc3)cc2/C=C\C(=O)O)cc1,0.25,0.56
CCCCOc1ccccc1C(=O)N(Cc1ccco1)Cc1sccc1C,-0.15,0.52
Nc1nc(C2CC2)[nH]c(=O)n1,0.35,0.4

# Record cards (already shown):
# Profile of CCOc1ccc(/C=C2\S/C(=N\S(=O)(=O)c3ccc(C)cc3)NC2=O)cc1 : AID504770: nt; CapD inh: 0.7
# Profile of Cc1cccc(N=C(N)N=C(N)N)c1C : AID504770: nt; CapD inh: 0.34
# Profile of Cc1c(N)n[nH]c1-c1cccs1 : AID504770: -0.05; CapD inh: nt

# Other entries.
SMILES,AID504770,CapD inh
CCOC(=O)C1=C(C)NC2=C(C(=O)C(C(=O)OCC)C(c3ccccc3OC)C2)C1c1ccc(C)cc1 (configuration not stated),nt,11
O=C(CSc1nc2[nH]ncc2c(=O)n1-c1ccc(Cl)cc1)Nc1ccc(-c2nc3ccccc3o2)cc1,nt,3.5
OC(COc1ccc(C(F)(F)F)cn1)CSc1ccc(C(F)(F)F)cn1 (configuration not stated),-0.55,-0.28
CC(C)(C)CC(C)(C)NS(=O)(=O)c1ccc(F)cc1,-0.6,-0.36
O=C(CCC(=O)N1CCNCC1)Nc1nc(-c2cc3ccccc3oc2=O)cs1,nt,14
Cc1nc2ccccc2c(=O)n1NC(=O)/C=C/c1ccccc1,0,0.17
CCOc1cc(N2CCOCC2)c(OCC)cc1NC(=O)CSc1ncccn1,-0.5,nt
COc1cc(C2C(C#N)=C(N)Oc3n[nH]c(-c4ccc5c(c4)OCO5)c32)cc(OC)c1OC (configuration not stated),nt,0.05
CCCOc1ccc(C(=O)Nc2cccc(-c3nc4ccccc4[nH]3)c2C)cc1,nt,-0.34
O=C(OCCc1ccc([N+](=O)[O-])cc1)N1CCC(O)(c2ccc(Cl)cc2)CC1,nt,-0.25
COc1cc(/C=N/NC(=O)/C=C/c2ccc3c(c2)OCO3)cc([N+](=O)[O-])c1O,nt,-1.9
NC(=O)CSc1nc2c(c(=O)n1CCc1ccccc1)SCC2,-0.4,1.3
COc1cc(S(=O)(=O)N2CCCc3ccccc32)c(OC)cc1C,1.8,-0.22
O=C1N=C2C=CC=CN2C(=O)C1Cc1ccccc1 (configuration not stated),-0.45,nt
Cc1c(NC(=O)/C=C/C(=O)O)c(=O)n(C)n1-c1ccccc1,nt,-0.34
Cc1cc(=O)oc2c1c(C(F)(F)F)nn2-c1ccccc1,nt,-0.035
O=C(CC1SC(=NC2CC3C=CC2C3)NC1=O)Nc1ccc(Cl)cc1 (configuration not stated),-0.25,0.7
CC1=NN(C(=O)c2ccccc2Br)C(O)(c2ccc(Cl)cc2)C1 (configuration not stated),nt,0.045
CC(C)NC(=O)CN1C(=O)c2cccc3cccc1c23,-0.25,0.31
COc1ccc(C(CNC(=O)Cc2cccs2)N(C)C)cc1 (configuration not stated),0.25,nt
CC(=O)Nc1ccc(N(C)S(=O)(=O)c2ccc(C)cc2)cc1,0.15,0.7
O=C(NCCO)c1ccc2c(c1)OCCOCCOCCO2,1.6,0.18
CC1(c2ccccc2)CCN2CCC(C)(c3ccccc3)c3cc([N+](=O)[O-])cc1c32 (configuration not stated),nt,-0.38
C=CCN(C(=O)Cc1nc(-c2ccc(OC)cc2)no1)c1ccccc1,-1.5,-0.095
O=C(OCc1cn2cc(Cl)ccc2n1)C1COc2ccccc2O1 (configuration not stated),0,nt

# Continuation:
SMILES,AID504770,CapD inh
CCc1ccc(/C=C(/C#N)C(=O)OC)s1,-0.55,nt
CC1CCCCC1NC(=O)COn1nnc2ccc(Cl)cc21 (configuration not stated),-1.2,nt
COc1ccc(-c2cnn(-c3ccc(NS(=O)(=O)c4ccccc4)cc3)c2)cc1,nt,-0.71
COc1cccc(OCC(F)(F)F)c1C#N,nt,0.45
O=C(Cn1cnc2c(oc3ccccc32)c1=O)OCc1cc(F)cc2c1OC(c1ccsc1)OC2 (configuration not stated),0.4,nt
O=C1C(=O)N(c2nc3ccccc3s2)C(c2ccc3c(c2)OCO3)/C1=C(\O)c1ccccc1 (configuration not stated),nt,-0.15
Cc1cc(C)n(CCCNc2nc(-c3cccnc3)nc3ccccc23)n1,1.8,nt
Cc1ccc(-c2csc(NC(=O)C(C)C)c2C(=O)O)cc1,-0.35,0.69
COc1ccc(N2C(=O)/C(=C/c3ccc(-c4cc(C(=O)O)ccc4Cl)o3)C(=O)NC2=S)cc1,nt,-0.31
Cc1cc2nc(-c3cccc(NC(=O)c4cc([N+](=O)[O-])ccc4Br)c3)oc2cc1C,nt,0
Cc1cc(C)nc(OC(Cc2ccnc3ccccc23)c2cccc(C(F)(F)F)c2)n1 (configuration not stated),nt,-0.07
O=C(/C=C/c1ccccc1)NCCn1ccc2ccccc21,-0.4,-0.78
Nc1nc(NC(=O)CCC(=O)O)nn1-c1ccccc1,-0.55,nt
CCc1ccc(C(=O)NCCc2nnc(SC)n2CC)cc1,-0.05,nt
O=[N+]([O-])/C(=C\Nc1cccc(C(F)(F)F)c1)S(=O)(=O)c1ccccc1,nt,-0.16
O=C(Nc1cccc(F)c1)c1cc(S(=O)(=O)N2CCCCC2)ccc1F,0.15,0.02
O=C(c1cnn(C(=O)CCN2CCN(c3ccccc3)CC2)c1)c1ccccc1O,-0.4,nt
O=C1NC(=O)C(Nc2cccc3ccccc23)S1 (configuration not stated),-1.2,nt
CC(C)(C)NS(=O)(=O)c1cccc2nsnc12,nt,0.18
Cc1cc(C)cc(Oc2ccc(C#N)c(C#N)c2)c1,-0.25,0.41
COc1nc(OC)nc(N2CCN(c3cc(C)ccc3C)CC2)n1,-1.6,-0.78
NC(=O)C1CCN(C(=O)c2ccc3c(=O)n(C4CCCCC4)c(SCC(=O)N4CCCC4)nc3c2)CC1,nt,-0.34
Cc1ccc(SCC(=O)NC(=O)C(C)C)cc1C,-0.35,nt
COc1nc(C)nc(/N=C\NO)n1,0.1,0.34
C=CCNC(=O)C1C2C=CC(C2)C1C(=O)OC(C)C (configuration not stated),-0.1,0.59

# Rewritten with two lines to a compound: part of the list above
# Values in the order: AID504770	CapD inh
COc1ccc(C(CNC(=O)Cc2cccs2)N(C)C)cc1 (configuration not stated)
  0.25	nt
CC(=O)Nc1ccc(N(C)S(=O)(=O)c2ccc(C)cc2)cc1
  0.15	0.7
O=C(NCCO)c1ccc2c(c1)OCCOCCOCCO2
  1.6	0.18
CC1(c2ccccc2)CCN2CCC(C)(c3ccccc3)c3cc([N+](=O)[O-])cc1c32 (configuration not stated)
  nt	-0.38

# Later entries.
SMILES,AID504770,CapD inh
CCCNC(=O)C(C)N1Cc2ccccc2C1=O (configuration not stated),-0.9,-0.67
Cn1cnnc1SCC(=O)Nc1ccccc1C(=O)Nc1ccc2c(c1)OCO2,1.9,nt
Cc1nc(C(F)(F)F)nc(NNC(=O)Nc2ccccc2)c1C,-0.1,0.18
COc1ccc(Cl)cc1N=Cc1sccc1C,-1,2.2
Cc1csc(NC(=O)CSc2nc(C34CC5CC(CC(C5)C3)C4)ccc2C#N)n1,0.45,-0.045
O=C(/C=C/NCc1ccccc1)c1cccs1,2.3,-3.9
Cc1nc(N)sc1Cc1ccc(O)cc1,-0.15,-0.15
Cc1ccc(S(=O)(=O)N2CCC(C(=O)N/N=C/c3ccccn3)CC2)cc1,-0.75,0.05
Cn1c(Sc2nc3ccc(Cl)cc3s2)nnc1-c1cccs1,-0.8,0.78
COc1ccc(C(=O)Nc2sc3c(c2C(=O)NCC2CCCO2)CCCC3)cc1 (configuration not stated),0.5,1.1
Cc1onc(-c2ccccc2)c1C(=O)c1c[nH]c(C(=O)NCc2ccccn2)c1,nt,-0.24
Cc1nn(-c2ccccc2)nc1-c1nnc(-c2ccc(Cl)c(Cl)c2)o1,0.5,9
O=C(c1ccccc1)C(C(=O)c1ccccc1)C(=O)c1ccccc1,-0.1,-0.1
CC(=O)N/C(=C/c1ccc2c(c1)OCO2)C(=O)O,-0.35,-1.5
Cc1c(CO)[nH]c2ccc(Cl)cc12,-0.5,-0.66
NC(=O)COC(=O)C(c1ccccc1)c1ccccc1,-1.6,nt
CC(=O)Nc1cccc(C(C(F)(F)F)C(F)(F)F)c1,1,0.18
Cc1ccccc1C(=O)N/N=C1/SCC(=O)N1Cc1ccc2c(c1)OCO2,2.1,nt
N#CCC(=O)Nc1ccc(F)cc1,nt,0.39
Cc1nc(CCNC(=O)CC2CCCCC2)cs1,1.7,nt
COC(=O)c1cc(=O)c2cc(NC(=O)c3ccc(OC(F)(F)F)cc3)ccc2[nH]1,-0.75,1.1
CC(C)N1CCCC(C(=O)N2CCCCCC2)C1 (configuration not stated),-0.35,-0.01
O=C(O)CCC(=O)c1ccc(Cl)cc1,nt,0.38
COc1ccc(S(=O)(=O)N2CCCC(C(=O)NC(C)C)C2)cc1OC (configuration not stated),0.15,nt
c1cc2c(cc1CNc1nc3nonc3nc1NCc1ccc3c(c1)OCO3)OCO2,nt,0.02

# (more compounds)
SMILES,AID504770,CapD inh
CCc1nnc(NC(=O)c2nc(-c3ccc(Cl)cc3)n3c2CCCCC3)s1,0.45,0.41
CC(Cc1c[nH]c2ccccc12)NC(N)=O (configuration not stated),-0.15,-0.05
Cc1ccc(C)c(OCCn2cc(/C=C3\C(=N)N4N=C(S(C)(=O)=O)SC4=NC3=O)c3ccccc32)c1,0.4,-0.1
CN1CCN(C(=O)c2ccc(-c3cnn(-c4ccc(S(C)(=O)=O)cc4)c3)nc2)CC1,nt,3.6
N#Cc1ccsc1NC(=O)COC(=O)/C=C/c1cn(Cc2ccccc2)nc1-c1cccs1,0.15,nt
C=CCN(Cc1cccs1)C(=O)Cn1c(=O)cnc2ccccc21,-0.3,nt
C(=Nc1ccc2c(c1)OCO2)c1cccs1,nt,0.95
CN1C(=O)SC(Cc2ccc(C#N)cc2)C1=O (configuration not stated),-0.5,0.12
COc1ccc(/C=C2\C(=O)N(c3ccc(Cl)cc3)C(c3ccc(F)cc3)S2(=O)=O)c(OC)c1 (configuration not stated),0.45,-0.87
CCOC(=O)Cn1cc(C#N)c(=O)[nH]c1=O,nt,5.2
CC(C)C(NS(=O)(=O)c1ccc2c(c1)Cc1cc(S(=O)(=O)NC(C(=O)O)C(C)C)ccc1-2)C(=O)O (configuration not stated),-0.45,0.4
CCOC(=O)C1=C(Cn2ccc(C(F)(F)F)n2)NC(=O)NC1c1cc(C)ccc1C (configuration not stated),-0.25,0.6
O=C1Nc2ccc(S(=O)(=O)Oc3cccc4ccccc34)c3cccc1c23,nt,2.1
COc1ccc(C(=O)c2c[nH]c(C(=O)NCc3ccc(F)cc3)c2)cc1,nt,-0.42
CC1(C)CC(NC(=O)N2c3ccccc3CCc3ccccc32)CC(C)(C)N1,-0.75,-0.08
COc1cc(Br)c(CN2CCCC(COC(=O)NNC(=O)c3cscc3OC)C2)cc1OC (configuration not stated),nt,0.15
c1cc2c(cc1C1=Nn3cnnc3SC1)OCCO2,-0.5,-0.11
O=C(Cn1cc(C(=O)C2CCCCC2)c2ccccc21)NCC1CCCO1 (configuration not stated),0.75,0.07
O=C(NCc1ccccc1)NC(c1ccccc1)c1nnc(-c2ccccc2)o1 (configuration not stated),-0.7,0.51
N#CC1=C(SCC(=O)Nc2ccc3ccccc3c2)NC(=O)CC1c1cccs1 (configuration not stated),nt,0
CC1CC(=O)C2=C(C1)Nc1ncnn1C2c1ccccc1 (configuration not stated),2,-0.24
